# Screening data from PubChem.
# VACV E9 pol inh = vaccinia E9 polymerase processive synthesis inhibitors, primary screen, biochemical, absorbance; Vaccinia virus DNA polymerase (E9) processive complex; in vitro processive DNA synthesis, absorbance read-out; active compounds read low; some inactives read as strong as hits; normalized absorbance, % (no concentration beside the values); 46,000 compounds, 0.94% hits;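 active means replicate mean up to 90% and picked by the depositor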;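 further: 100% = median of the test wells of a plate; 100 nL library stock went into each well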
# Starred values were filed as active, the others as inactive. Some of the compounds tested; rates above refer to the full screens.
SMILES,VACV E9 pol inh
COc1ccc(NC(=O)C(C)NC(=O)C(c2ccccc2)c2ccccc2)cc1 (stereo not given),101
Cc1cc(C)c2c(=O)cc(-c3ccccc3Cl)oc2c1,101
CC1CC(C)(C)NC(=S)N1CCCC(=O)N1CCN(c2ccccc2)CC1 (stereo not given),101
O=S(=O)(NCC(Nc1ccccc1)c1ccccc1)c1ccc(Cl)cc1 (stereo not given),102
O=C(NCc1ccc(F)cc1)c1ccc(N2CCCS2(=O)=O)cc1,106
N#CC(C#N)=C(N)c1ccccc1,88
O=c1cc(C(F)(F)F)nc(Cc2c(Cl)cccc2Cl)[nH]1,98
Cc1nc(C)c(-c2csc(Nc3ccccc3)n2)s1,92
CC(C)CC(=O)N1CCN(C(=O)COc2ccc(-c3ccccc3)cc2)CC1,104
O=C(CCS(=O)(=O)c1ccc2c(c1)SCC(=O)N2)NCc1cccs1,102
O=C(c1ccccc1)c1ccc(O)cc1O,107
CCC(=O)c1ccc(OC(=O)c2cn(-c3ccccc3)nc2-c2ccccc2)cc1,99
O=C(Nc1ccccc1N1CCCCC1)C1CC(=O)N(Cc2ccccc2)C1 (stereo not given),86
CC1CCCCN1C(=O)c1ccc(F)cc1F (stereo not given),97
Cc1cccc2c1nc1s/c(=C/c3cn[nH]c3-c3ccccc3)c(=O)n12,100
O=C(Nc1cccc(C(F)(F)F)c1)OC1CN2CCC1CC2 (stereo not given),91
CSc1ncccc1C(=O)Nc1ccc(F)cc1,100
CCN1C(=O)/C(=C2\SC(=S)NC2=O)c2cc(Br)ccc21,108
S=C(Nc1ccccc1)N1CCCCC1c1cccnc1 (stereo not given),91
O=C(c1ccccc1)c1ccc(CBr)cc1,96
CC(C)(C)c1ccc(CNCc2ccco2)cc1,101
COc1ccc(CCNC(=O)CSc2ccccc2Cl)cc1,100
CN(C)/C=C(\C#N)C(=O)Nc1cc(C(F)(F)F)ccc1Cl,102
O=C1NC(C(F)(F)F)(C(F)(F)F)N=C2SC=C(C3CC3)N12,100
O=C(CN1CCN(Cc2ccccc2)C1=O)NCCCN1CCOCC1,101
CCCOc1ccccc1C1NC(=S)NC(C)=C1C(=O)OC1CCCC(C)C1 (stereo not given),101
NS(=O)(=O)c1cc(C2(O)NC(=O)c3ccccc32)ccc1Cl (stereo not given),100
COc1ccc2c(C)cc(SCc3c(C)noc3C)nc2c1,87
Fc1ccc(-c2cn3nc4c(nc3n2)CCCC4)cc1,100
COCCN1C(=O)c2ccccc2C(C(=O)Nc2ccc(C(C)C)cc2)C1c1ccc(F)cc1 (stereo not given),98

# Another view of 23 compounds above.
mol	VACV E9 pol inh
O=C(NCc1ccc(F)cc1)c1ccc(N2CCCS2(=O)=O)cc1	106
N#CC(C#N)=C(N)c1ccccc1	88
O=c1cc(C(F)(F)F)nc(Cc2c(Cl)cccc2Cl)[nH]1	98
Cc1nc(C)c(-c2csc(Nc3ccccc3)n2)s1	92
CC(C)CC(=O)N1CCN(C(=O)COc2ccc(-c3ccccc3)cc2)CC1	104
O=C(CCS(=O)(=O)c1ccc2c(c1)SCC(=O)N2)NCc1cccs1	102
O=C(c1ccccc1)c1ccc(O)cc1O	107
CCC(=O)c1ccc(OC(=O)c2cn(-c3ccccc3)nc2-c2ccccc2)cc1	99
O=C(Nc1ccccc1N1CCCCC1)C1CC(=O)N(Cc2ccccc2)C1 (stereo not given)	86
CC1CCCCN1C(=O)c1ccc(F)cc1F (stereo not given)	97
Cc1cccc2c1nc1s/c(=C/c3cn[nH]c3-c3ccccc3)c(=O)n12	100
O=C(Nc1cccc(C(F)(F)F)c1)OC1CN2CCC1CC2 (stereo not given)	91
CSc1ncccc1C(=O)Nc1ccc(F)cc1	100
CCN1C(=O)/C(=C2\SC(=S)NC2=O)c2cc(Br)ccc21	108
S=C(Nc1ccccc1)N1CCCCC1c1cccnc1 (stereo not given)	91
O=C(c1ccccc1)c1ccc(CBr)cc1	96
CC(C)(C)c1ccc(CNCc2ccco2)cc1	101
COc1ccc(CCNC(=O)CSc2ccccc2Cl)cc1	100
CN(C)/C=C(\C#N)C(=O)Nc1cc(C(F)(F)F)ccc1Cl	102
O=C1NC(C(F)(F)F)(C(F)(F)F)N=C2SC=C(C3CC3)N12	100
O=C(CN1CCN(Cc2ccccc2)C1=O)NCCCN1CCOCC1	101
CCCOc1ccccc1C1NC(=S)NC(C)=C1C(=O)OC1CCCC(C)C1 (stereo not given)	101
NS(=O)(=O)c1cc(C2(O)NC(=O)c3ccccc32)ccc1Cl (stereo not given)	100

# Other entries:
SMILES,VACV E9 pol inh
COc1cc(/C=C2/SC(=Nc3ccccc3)N(CCc3ccccc3)C2=O)ccc1OCC(N)=O,100
Cc1cc(S(=O)(=O)N2CC=C(c3ccccc3)CC2)c(C(F)(F)F)o1,104
O=C(CSc1ccccc1)Nc1ccccc1C(F)(F)F,96
CN(C)c1ccc(NC(=O)Nc2ccc(F)cc2)cc1,109
Cc1ccc(NC(=O)c2ccc(Oc3ccc(C(=O)Nc4ccc(C)cc4)cc3)cc2)cc1,92
O=C(NC1CCN(Cc2ccccc2)CC1)c1ccc(NS(=O)(=O)c2cccs2)cc1,92
CC1=NN(C(=O)COc2cc(C)cc(C)c2)C(O)(C(F)(F)F)C1 (stereo not given),100
O=C(NCc1cccnc1)c1ccc(Br)cc1,94
COc1ccc(N2CC(C(=O)OCC(=O)Nc3ccccc3C(F)(F)F)CC2=O)cc1 (stereo not given),101
CC(=O)O/C(=C\c1cn(C(C)=O)c2ccccc12)C(=O)O,100
CC1CCN(C(=O)COC(=O)Cc2c(Cl)cccc2Cl)CC1,109
N#Cc1nc(-c2ccccc2F)oc1NCCc1ccccc1,81
CC(C)(C)C(=O)COC(=O)C1(c2ccc(F)cc2)CCCC1,96
O=C(CS(=O)(=O)c1c[nH]c2ccccc12)NC1CCCCC1,100
O=C(CSc1ccc(-c2cccs2)nn1)c1ccccc1,104
CNc1nc(N2CCOCC2)nc(N(c2ccccc2)c2ccccc2)n1,100
CCOC(=O)C1CCN(C(=O)c2ccc(CC)cc2)CC1,103
CCN1C(=O)c2cccc3c(S(=O)(=O)NCCO)ccc1c23,103
CCc1cc2c(=O)c(-c3cscn3)coc2cc1OC,95
CC(=O)Oc1c(S(=O)(=O)c2ccccc2)c(C)nn1-c1ccccc1,102
CCCOC(=O)COc1ccc2c(=O)c(-c3ccccc3OC)coc2c1,100
CCOC(=O)c1[nH]c2cc(OC)c(OC)cc2c1N1C(=O)CCC1=O,94
O=C1c2ccccc2C(=O)N1CN(C(=O)c1ccccc1)c1ccc(Br)cc1,101
Oc1ccccc1-c1cc(-c2ccccc2)nn1Cc1ccc(Cl)cc1,100
CCC(Sc1nc2ccccc2o1)C(=O)O (stereo not given),101
c1ccc(CNn2cn[n+](Cc3ccccc3)c2)cc1,89
CC(=O)NC1=NC(=O)/C(=C\c2ccc(C)cc2)S1,101
O=C(NC1CCCCC1)c1c[nH]c2ccccc2c1=O,101
Cc1ccc(Nc2nc(C)nc3c2oc2ccccc23)cc1,97
CCS(=O)(=O)N1CCN=C1SCc1ccc(Cl)cc1Cl,21*
CCc1ccc(NC(=O)Cn2nc(-c3ccc(OC)cc3)ccc2=O)cc1,89
O=C(Cn1cccc1)N1CCN(C(c2ccccc2)c2ccccc2)CC1,103
O=C(Cc1ccc(Cl)cc1)c1ccc(Cl)cc1,79*
Cc1ccc(CS(=O)(=O)c2ccccc2-c2nnc(-c3ccc(Cl)cc3)o2)cc1,105
O=c1nc2c(-c3cccc(C(F)(F)F)c3)n[nH]n2c2ccccc12,102
O=C(Nc1ccccc1)c1cc2ccccc2oc1=O,100
CC(C)n1c(-c2ccccc2)nc2ccccc21,99
CCNCC(O)c1cccc(O)c1 (stereo not given),104
OCCNc1ncnc2nc[nH]c12,101
COc1ccc(OC(=O)/C=C/c2sc3ccccc3c2C)cc1,104
O=C(CCn1c(=S)oc2ccccc21)N1CCn2c(nc3ccccc32)C1,100
CCn1c(CCNC(=O)C2CCCCC2)nc2ccccc21,102
Cc1csc(-c2c(C)oc3cc(O)ccc3c2=O)n1,99
CCCOc1ccc2cc(C(=O)c3ccccc3)c(=N)oc2c1,108
COc1ccc(C2C(C#N)=C(N)Oc3cc(C)n(CCc4ccc(OC)c(OC)c4)c(=O)c32)cc1 (stereo not given),110
Fc1ccc(Oc2ncnc3sccc23)c(Cl)c1,104
O=C(CC1Sc2ccccc2NC1=O)Nc1ccccc1 (stereo not given),98
COc1ccc2c3c(ccc2c1)C(=O)[C@@](C)(CCC(=O)O)CC3,100
COC(=O)c1c(N)c(C#N)c2n1CCC2,100
Cc1cccc(C)c1NCc1n[nH]c(=S)n1-c1ccccc1,95
CCOC(=O)c1[nH]c2ccccc2c1-n1cccc1,99
COc1ccc(Cc2nnc(SCC(=O)Nc3ccc(OC)cc3)o2)cc1,100
CC(C)Oc1cc(N2C(=O)CSCC2=O)c(Cl)cc1Cl,96
CC(=O)Nc1cn(-c2ccccc2)nc1-c1ccccc1,104
CSc1cccc(NC(=O)CSc2nncn3c2cc2sccc23)c1,96
CCc1ccc(OCC(=O)OCC(=O)N2CCc3ccccc3C2)cc1,103
CC(=O)Oc1ccc2c3c(c(=O)oc2c1)CCCC3,99
Cc1cc(C)c(S(=O)(=O)N2CCSC2C)c(C)c1 (stereo not given),106
O=C(CSc1ccccc1C(=O)O)NC12CC3CC(CC(C3)C1)C2,99
O=c1c(Br)c(N2CCOCC2)cnn1-c1ccccc1,102

# Remaining list, next part
SMILES,VACV E9 pol inh
O=C(COc1ccc(C(=O)c2ccc(F)cc2)cc1)NC1CCCC1,102
C/C(C(=O)c1ccc(Cl)cc1)=[N+](/[O-])C1CCC/C1=N\O (stereo not given),100
Cc1ccc(NC(=O)CC(NCCc2ccccc2)C(=O)O)cc1 (stereo not given),100
CCN(C(=O)c1c(-c2ccccc2Cl)noc1C)C(Cc1ccccc1)c1ccc(OC)cc1 (stereo not given),104
CC(C)(C)SCc1cccc(C(=O)N2CCN(c3ncccc3C(F)(F)F)CC2)c1,97
COc1ccc(OCC(=O)NCc2ccco2)cc1,100
C=CCn1c(SCC(C)C)nc2sc3c(c2c1=O)CC(C)(C)OC3,100
O=C1Nc2ccc(Cl)cc2C(c2ccccc2Cl)=NC1O (stereo not given),97
COc1ccc(/C=C2\CC/C(=C\c3ccc(OC)c(Cn4cccn4)c3)C2=O)cc1Cn1cccn1,104
CCc1cccc(NC(=O)Cc2noc3ccccc23)c1,99
CCOC(=O)C1CCCN(C(=O)c2cc(-c3ccc(F)cc3)nc3ccccc23)C1 (stereo not given),100
CCN1C(=O)C(C(=O)N(Cc2ccccc2)Cc2ccccc2)C2CC1(C)Oc1ccccc12 (stereo not given),100
Cc1cc(NCCN2CCOCC2)nc2ccccc12,104
O=C1C(=Cc2ccc(O)cc2)C(=O)c2ccccc21,93
O=C1CC(c2ccccc2)n2nc(NS(=O)(=O)c3ccccc3)nc2N1 (stereo not given),100
CC1(c2ccc(Cl)cc2)CC(C)(C)N(C(=O)c2cccnc2)c2ccccc21 (stereo not given),100
CC(C)(C)C(=O)CSc1nc2c(cc1C#N)N1CCC2CC1,97
Cc1cccc(-c2nnc(NC(=O)Cc3ccccc3)s2)c1,101
CCCc1cc(=O)[nH]c(SCC(=O)NCC23CC4CC(CC(C4)C2)C3)n1,100
Cc1nc2ccccc2nc1SCC(=O)O,103
Cc1cc(C)c(OCC(=O)Nc2cc(-c3nc4ncccc4o3)ccc2C)c(Cl)c1,100
N#Cc1ccsc1NC(=O)CCSc1ccccc1,116
CCC(Sc1nc2ccncc2[nH]1)C(=O)N(Cc1ccccc1)C(C)C (stereo not given),80
CCOC(=O)C1CCN(C(=O)C(C(=O)c2ccccc2)n2ccccc2=O)CC1 (stereo not given),98
O=C(COC(=O)Cc1ccc(F)cc1)NCc1ccco1,97
S=C1COC(c2ccc(Br)cc2)N1c1ccccc1 (stereo not given),100
CN1C(=O)/C(=C2\SC(=S)N(c3ccc(O)cc3)C2=O)c2ccccc21,102
Oc1ccc(Cl)cc1N=Cc1ccc(-c2ccc(Br)cc2)o1,100
O=C1CCCN1CO,101
CCNCC(O)c1cccc(OC(=O)c2ccccc2C)c1 (stereo not given),100
CCOc1ccc(Nc2nc(Nc3ccc(OCC)cc3)nc(SC3=NCCS3)n2)cc1,100
O=C(NCc1ccccc1)c1cnn(-c2ccccc2)c1-n1cccc1,102
COc1ccc(/C=N/n2c(=O)c3c(ncn3/N=C/c3ccc(OC)cc3)n(C)c2=O)cc1,99
CC(CCc1ccccc1)NC(=O)CSc1ccccc1Cl (stereo not given),99
CCSc1nnc(C)c2ccccc12,97
CCC(=O)O[C@H]1[C@H](O[C@@H]2[C@@H](C)[C@H](O[C@H]3C[C@@](C)(OC)[C@@H](O)[C@H](C)O3)[C@@H](C)C(=O)O[C@H](CC)[C@@](C)(O)[C@H](O)[C@@H](C)C(=O)[C@H](C)C[C@@]2(C)O)O[C@H](C)C[C@@H]1N(C)C,95
CCCc1c(C#N)c(N)nc(SCCCN2CCN(c3cccc(Cl)c3)CC2)c1C#N,102
COc1cccc(-n2cc(C(=O)NCCc3ccc(S(N)(=O)=O)cc3)c3ccccc3c2=O)c1,106
C/C(CSC(=O)c1c(-c2c(F)cccc2Cl)noc1C)=N\O,96
c1ccc(-c2onc3ccc(C4OCCO4)cc23)cc1,96
CCn1cc(C=C2C(=O)OC(C)(C(C)(C)C)OC2=O)c2ccccc21 (stereo not given),100
O=C(O)c1csc2c1CCCCC2,91
Cc1ccc(C)c(N2CCN(C(=O)C3CCN(c4ccc(N5CCOCC5)nn4)CC3)CC2)c1,102
CC(=O)N1CCN(C(=O)/C(=C/c2ccc(F)cc2)c2ccsc2)CC1,103
Cc1ccc(Cn2nnc3c(=O)n(CC(N)=O)cnc32)cc1,99
O=C(Nc1ccccc1-c1nc2ccccc2[nH]1)c1cccs1,98
CC(C)(CN)C12CC3CC(CC(C3)C1)C2,104
COc1ccccc1Nc1nc(-c2ccccc2)cs1,99
NNC(=S)c1cc(Cl)cc(Cl)c1,85
NS(=O)(=O)c1ccc(CCn2c(=S)[nH]c3c(sc4ccccc43)c2=O)cc1,102
Nc1ncc(Cc2cccc3ccccc23)s1,106
Cc1ccc(C(C)C)cc1S(=O)(=O)NCc1ccccn1,101
C=C1N(c2ccccc2)C(=O)OC1(C)C,96
